# GALR2 agonist: GALR2 receptor agonists, primary screen, cell-based | GALR2-expressing cells, agonist activation read-out | activation, %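 (tested at 5 µM)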 | 0.48% of 140,000 active;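 active = above mean plus 3 SD of all compounds, about 5% in these data, not always enough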;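 also: 0% = vehicle buffer wells and 100% = reference agonist at full effect; tested in CHO reporter cells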
# Target sequence (O43603 whole entry, looked up): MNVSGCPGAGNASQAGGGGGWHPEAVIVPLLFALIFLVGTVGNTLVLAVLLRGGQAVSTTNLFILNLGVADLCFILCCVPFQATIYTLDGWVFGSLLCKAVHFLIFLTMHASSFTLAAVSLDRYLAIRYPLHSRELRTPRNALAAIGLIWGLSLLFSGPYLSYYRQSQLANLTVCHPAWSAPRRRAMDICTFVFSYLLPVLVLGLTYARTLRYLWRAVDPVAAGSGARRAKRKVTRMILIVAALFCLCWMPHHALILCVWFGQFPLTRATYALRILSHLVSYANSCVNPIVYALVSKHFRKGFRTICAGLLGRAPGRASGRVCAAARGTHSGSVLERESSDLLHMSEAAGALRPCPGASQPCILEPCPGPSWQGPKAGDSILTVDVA
# HSV augment: enhancers of HSV replication in host cells, fold increase, host cell viability; maximum fold increase; HSV replication augmentation in cells; 0.005% of 220,000 active;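 active = peak rise of 1.5-fold or more in the series; tested in PC3 cells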;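 also: first round at 10 µM; read as green reporter fluorescence; hits show the peak of a series up to 25 µM; 1 = signal of infected wells without compound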
# INS promoter inh: inhibitors of insulin promoter-driven GFP, primary screen, imaging, TRM-6 cells (human fetal islet line), eGFP reporter, cell count | reporter expression induced with tamoxifen | inhibition, % at 2 µM | 0.9% of 130,000 active;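 active = inhibition above the mean plus 3 SD, with well images judged a real hit on visual review, cut at about 60% in these data, passing the limit was not always enough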
# RGS16-Gao HTS: modulators of RGS16 binding to Galphao, primary screen, biochemical, human proteins, multiplexed bead flow cytometry; 0.38% of 220,000 active; bead-based flow cytometry RGS16-Galphao binding, fluorescence; actives lie on both sides; binding response (% of control), % at 10 µM; AID 1441, 2008;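 active = below 25% or above 175%, edge rows of some plates excepted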;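 also: Galphao activated by GDP with aluminum fluoride before binding; 100% = wells without compound and 0% = beads without RGS; some results beyond the cut were filed as inactive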
# Target sequence (O15492 whole entry, looked up): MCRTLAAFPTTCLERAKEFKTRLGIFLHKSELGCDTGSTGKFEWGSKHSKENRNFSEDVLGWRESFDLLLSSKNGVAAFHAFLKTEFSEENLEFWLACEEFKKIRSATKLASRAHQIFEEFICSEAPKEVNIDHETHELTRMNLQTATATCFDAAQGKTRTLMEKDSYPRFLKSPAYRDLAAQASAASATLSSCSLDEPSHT
# Target sequence (P09471 whole entry, looked up): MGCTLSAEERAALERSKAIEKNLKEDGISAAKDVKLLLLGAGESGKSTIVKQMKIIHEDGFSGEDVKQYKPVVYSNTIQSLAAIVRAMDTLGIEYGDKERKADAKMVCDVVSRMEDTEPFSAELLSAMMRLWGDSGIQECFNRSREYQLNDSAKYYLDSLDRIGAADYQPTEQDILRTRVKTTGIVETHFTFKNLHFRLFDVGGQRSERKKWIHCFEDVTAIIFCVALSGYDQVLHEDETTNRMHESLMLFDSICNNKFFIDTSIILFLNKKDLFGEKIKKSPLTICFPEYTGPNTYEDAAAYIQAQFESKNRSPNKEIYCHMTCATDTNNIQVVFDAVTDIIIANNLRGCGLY
# PKD1 inh: inhibitors of human PKD1 kinase, biochemical, fluorescence polarization; Serine/threonine-protein kinase D1 (Homo sapiens), Q15139; PKD1 kinase fluorescence polarization assay; 0.056% of 200,000 active; inhibition, %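 (about 10 µM by stock and volumes)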; AID 797, 2007;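 active = inhibition of 50% or more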;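 also: controls were vehicle for no effect and a reference inhibitor for full effect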
# INS promoter inh cell count: second read-out of INS promoter inh, no call of its own (marks repeat the call); normalized cell count, %; measured here: cell count, toxicity; reference of the scale not given here;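 cells exposed to compound for 48 h; stained nuclei by imaging scaled within each plate; lower means fewer cells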
# HSV augment primary fold: recorded beside HSV augment, whose call it bears; fold increase; compound at 10 µM; measured here: primary screen fold increase 10 uM; tested in PC3 cells;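 GFP signal in the first replicate; 1 = infected wells without compound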
# * marks the source's active call; other numbers are inactive results; i = inactive; nt = not tested or not shown.
Compound	GALR2 agonist	HSV augment	HSV augment primary fold	INS promoter inh	INS promoter inh cell count	RGS16-Gao HTS	PKD1 inh
CC1=CC(C)C2(CO)COC(c3ccccc3O)C1C2C (stereo unspecified)	-2.7	i	0.84	-17	147	103	-3
O=[N+]([O-])c1ccc(C2Nc3cccc4cccc(c34)N2)cc1	-1.4	i	0.96	4	63	114	4
COc1ccc(NC(=O)CSc2nc3ccccc3c(=O)n2CCC(=O)N2CCCCC2)cc1	-0.3	i	0.88	8	87	98	-10
COc1cc(C(=O)Oc2ccccc2/C=N/NC(=O)c2ccc(C)c(Cl)c2)cc(OC)c1OC	-1.1	i	0.66	nt	nt	102	3
Cc1ccc(N2C(N)=NC(N)=NC23CCCC3)c(C)c1	-2.0	i	0.87	12	89	102	-4
C=CCc1cc(C=O)cc(OC)c1OCc1c(Cl)cccc1Cl	-2.0	i	0.78	-10	93	90	-14
COCCn1c(-c2cccc([N+](=O)[O-])c2)nc2c1c(=O)[nH]c(=O)n2Cc1ccccc1	1.2	i	0.88	37	68	106	-1
C=CCOc1ccc(/C=C2\SC(=S)N(C(C(=O)O)c3ccccc3)C2=O)cc1 (stereo unspecified)	nt	i	1	nt	nt	102	nt
Cc1cc(C(=O)Cn2nc(C(=O)O)c3ccccc3c2=O)c(C)n1-c1ccccc1	0.7	i	0.85	8	111	98	-7
CC(C)CN(CC(C)C)C(=O)Nc1cccc([N+](=O)[O-])c1	nt	i	1	nt	nt	112	-4
COc1ccc(-c2nnc(SCC#N)o2)cc1	-1.2	i	0.9	-9	100	98	-1
Cc1ccc(S(=O)(=O)NCCNc2ccc([N+](=O)[O-])cc2C(F)(F)F)cc1	-0.6	i	0.95	-178	0	100	-288
CCc1ccc(-c2nc(NC(=S)NC(=O)c3cccs3)sc2C)cc1	-2.3	i	0.9	20	35	98	-3
Cc1ccc(C)c(NC(=S)NC(NC(=O)Cc2ccccc2)C(Cl)(Cl)Cl)c1 (stereo unspecified)	-2.5	i	0.83	-9	98	93	-5
O=c1c2ccccc2nc(CSc2nnnn2-c2ccccc2)n1-c1ccccc1Cl	-2.2	nt	nt	31	100	93	-7
Cc1cccc(-n2c(-c3csc(C)c3C)n[nH]c2=S)c1	1.1	i	1	-50	78	106	-4
O=S(=O)(c1ccc(Oc2ccc(Br)cc2F)nc1)N1CCCCC1	0.3	i	1.1	nt	nt	100	-8
CCN(CC)S(=O)(=O)c1ccc2c(c1)N(CC(=O)NCc1ccccn1)C(=O)CO2	nt	i	0.84	nt	nt	96	nt
Cn1c(O)c(C=NC(CC(N)=O)C(=O)O)c(=O)n(C)c1=O (stereo unspecified)	-2.0	i	1.1	6	123	95	-1
Cc1cc(C)cc(NC(=O)c2ccc(CNc3c(N4CCCC4)c(=O)c3=O)cc2)c1	nt	i	0.97	nt	nt	102	nt
CC(=O)NCCCC(=O)NN1C(=S)N(Cc2ccccc2)C(=O)C1CC(=O)Nc1cccc(C)c1 (stereo unspecified)	nt	i	0.94	nt	nt	100	-5
Cc1ccc(-c2nnc(N3CCN(C(=O)c4ccco4)CC3)c3ccccc23)cc1	-0.4	i	0.82	nt	nt	103	0
Cc1c(Cl)cccc1-n1ccnc1SCC(=O)O	-2.2	i	0.96	nt	nt	103	-6
O=C(Nc1cccc(Cl)c1N1CCCCC1)c1ccc2c(c1)OCCO2	-1.1	i	1.1	-4	110	111	12
Cc1ccc(C2C3=C(CCCC3=O)N=C3c4ccccc4C(=O)C32)cc1 (stereo unspecified)	-0.3	i	0.79	0	67	113	10

# Part of the list above, showing only PKD1 inh, RGS16-Gao HTS and HSV augment:
smiles | PKD1 inh | RGS16-Gao HTS | HSV augment
C=CCOc1ccc(/C=C2\SC(=S)N(C(C(=O)O)c3ccccc3)C2=O)cc1 (stereo unspecified) | nt | 102 | i
Cc1ccc(N2C(N)=NC(N)=NC23CCCC3)c(C)c1 | -4 | 102 | i
Cc1cc(C)cc(NC(=O)c2ccc(CNc3c(N4CCCC4)c(=O)c3=O)cc2)c1 | nt | 102 | i
Cc1ccc(S(=O)(=O)NCCNc2ccc([N+](=O)[O-])cc2C(F)(F)F)cc1 | -288 | 100 | i
O=[N+]([O-])c1ccc(C2Nc3cccc4cccc(c34)N2)cc1 | 4 | 114 | i

# More compounds:
Compound	GALR2 agonist	HSV augment	HSV augment primary fold	INS promoter inh	INS promoter inh cell count	RGS16-Gao HTS	PKD1 inh
CCOC(=O)c1sc(NC(=O)CN2C(=O)NC3(CCCCCCC3)C2=O)c(C(=O)OCC)c1C	nt	i	0.9	nt	nt	105	nt
C=CCN(C(=O)CNC(=O)c1ccco1)C(C(=O)NC1CCCCC1)c1ccc(OC)cc1 (stereo unspecified)	-0.6	i	0.87	-5	103	106	-1
CC(C)(C)CC(=O)Nc1ccc(C(N)=O)cc1	-0.4	i	0.75	-14	196	92	-15
COc1ccccc1/C=N/N1C(=O)c2cccc3cccc(c23)C1=O	nt	i	0.98	nt	nt	98	-6
CCOC(=O)c1c(NC(=O)COc2cccc3c2CCN(C)C3=O)sc2c1CCC2	2.1	i	0.7	-18	151	105	-3
COCCNc1nc(SCC(=O)N2CCN(c3ccccc3)CC2)nc2ccccc12	-2.1	i	0.83	-50	86	94	3
C/C(=N\NC(=S)NC(C)C)c1ccc(-n2ccnc2)cc1	-2.9	i	0.9	-12	83	159	-11
COc1ccc(CC(=O)NNC(=S)Nc2ccccc2)cc1Br	-3.4	i	0.91	-8	102	92	-13
CCOC(=O)/C(C#N)=C\c1cc(C)n(-c2ccccc2)c1C	0.5	i	1	0	77	104	-7
CC(C)Cn1ccc(=O)n(CC(C)C)c1=O	-0.8	i	1.1	40	67	107	-13
CCCSc1nc(C)c(CC(=O)O)c(=O)[nH]1	-2.1	i	0.99	69	142	105	4
Cc1onc(-c2ccccc2)c1C(=O)N1CCN(S(=O)(=O)c2ccc3c(c2)OCCO3)CC1	-1.8	i	1.3	nt	nt	104	-3
CCOC(=O)C1(Cc2ccccc2)CCN(Cc2cnn(CC)c2)CC1	nt	i	1.1	nt	nt	104	0
CCNc1nc(Oc2ccc(=O)[nH]n2)nc(SC)n1	-0.1	i	0.98	nt	nt	94	-1
Cc1noc(C)c1COC(=O)c1cccc(S(=O)(=O)N2CCCCCC2)c1	-1.4	i	0.95	nt	nt	97	-14
CCOC(=O)CNC(=O)CN1C(=O)CC(c2ccccc2)S(=O)(=O)c2ccccc21 (stereo unspecified)	nt	i	0.98	nt	nt	100	-4
O=C(COC(=O)c1cc[n+]([O-])cc1)Nc1ccccc1Sc1ccccc1	nt	i	0.89	-100	65	111	-3
O=C(NCCCO)Nc1ccc2nc(-c3ccco3)c(-c3ccco3)nc2c1	-0.5	nt	nt	-7	49	69	2
CCOc1ccc2[nH]c(=O)c(CN(CCCN3CCOCC3)Cc3nnnn3Cc3ccc(OC)cc3)cc2c1	nt	i	1	-33	73	101	1
Cc1cn([C@H]2C[C@H](N=[N+]=[N-])[C@@H](CO)O2)c(=O)[nH]c1=O	-1.4	i	0.93	18	122	101	-8
c1ccc2sc(N3CCN(Cc4nnnn4CC4CCCO4)CC3)nc2c1 (stereo unspecified)	-1.5	i	1.1	nt	nt	92	-4
O=C(NCCCn1ccnc1)/C(=C/c1ccco1)NC(=O)c1cccs1	nt	i	0.97	-115	93	95	-6
CC(=O)c1cc2c(cc1NC(=O)Nc1cccc(Cl)c1)OCCO2	-1.3	i	0.93	73	82	101	-12
CC(=O)Nc1ccc2c(COC(=O)CC3Sc4ccccc4NC3=O)cc(=O)oc2c1 (stereo unspecified)	nt	i	0.91	18	117	94	-5
CCOC(=O)c1sc(-c2ccc(OC)cc2)cc1NC(C)=O	-1.2	i	0.89	0	38	108	-6

# Reformatted with values under each structure: entries from further up
# Value order: GALR2 agonist, HSV augment, HSV augment primary fold, INS promoter inh, INS promoter inh cell count, RGS16-Gao HTS, PKD1 inh
Cc1ccc(-c2nnc(N3CCN(C(=O)c4ccco4)CC3)c3ccccc23)cc1
→ -0.4, i, 0.82, nt, nt, 103, 0
Cc1ccc(N2C(N)=NC(N)=NC23CCCC3)c(C)c1
→ -2.0, i, 0.87, 12, 89, 102, -4

# The listing continues:
Compound	GALR2 agonist	HSV augment	HSV augment primary fold	INS promoter inh	INS promoter inh cell count	RGS16-Gao HTS	PKD1 inh
COc1ccc(OC)c(NC(=O)CSc2ncccc2C(=O)O)c1	-2.2	i	0.91	-14	185	101	1
COc1ccc(C)cc1NC(=O)c1ccccc1NS(=O)(=O)c1cccc2cccnc12	0.0	nt	nt	nt	nt	112	-2
C/C=C/Cn1cccc(C(=O)Nc2ccc(OC)cc2)c1=O	nt	i	0.99	63	193	99	1
O=C(c1ccc(S(=O)(=O)Cc2ccccc2F)c([N+](=O)[O-])c1)N1CCCCCC1	nt	i	0.66	-8	131	103	4
CC1CN(C(=O)C2CC2)C(C)CN1C(=O)C1CC1 (stereo unspecified)	0.2	i	1.1	nt	nt	67	-1
CC(C)COC(=O)N(C)c1ccc(C(O)(C(F)(F)F)C(F)(F)F)cc1	0.7	i	0.84	11	206	18	-7
O=C(c1ccccc1)N(Cc1cccs1)C1CCS(=O)(=O)C1 (stereo unspecified)	-1.1	i	0.81	-76	68	101	-2
CC(C)(C)c1cc(CN2CCCC(O)C2)c(O)c(C(C)(C)C)c1 (stereo unspecified)	-0.8	i	1	nt	nt	95	-8
COc1cccc(-c2ccc(SCC(=O)NCCc3ccccc3)nn2)c1	nt	i	1.1	-40	70	97	-4
OC(c1nc2ccccc2[nH]1)C(O)C(O)C(O)c1nc2ccccc2[nH]1 (stereo unspecified)	nt	i	0.99	nt	nt	95	nt
CCN1CNC(=S)N(CCc2ccccc2)C1	-0.3	i	1.1	nt	nt	87	-3
O=[N+]([O-])c1ccc(CSc2nc3ccccc3o2)cc1	-2.3	i	1	nt	nt	102	0
O=C(NC1CCc2ccccc21)C12CN(Cc3ccccc3)CC1C(c1cccc([N+](=O)[O-])c1)=NO2 (stereo unspecified)	-1.4	i	0.99	5	88	87	-2
Cc1ccc(C(=O)O/N=C(\N)Cc2ccc([N+](=O)[O-])cc2)c(Cl)c1	nt	i	0.81	nt	nt	118	nt
CN(C)CCN1CC(C(=O)O)CC1=O (stereo unspecified)	-1.1	i	0.93	nt	nt	93	2
Cc1ccc(NCc2ccc(O)c3ncccc23)cc1	nt	i	1.1	29	83	100	-4
C=CCn1c(CCNC(=O)C(C)(C)C)nc2ccccc21	-0.4	i	0.93	nt	nt	102	-2
Cc1nc(NC(=O)c2ccc(OCC(C)C)cc2)sc1Cc1ccc2c(c1)OCO2	nt	i	0.97	nt	nt	98	3
CCc1cc(=O)oc2cc(C)c(CN3CCCC3)c(O)c12	-0.7	i	0.99	nt	nt	95	6
CCCNC(=O)CN1C(=O)NC(CCc2ccccc2)C1=O (stereo unspecified)	nt	i	0.93	nt	nt	111	-1
O=C(Nc1nc2cc(Cl)ccc2s1)C1CCCN(S(=O)(=O)c2cccc3cccnc23)C1 (stereo unspecified)	-5.5	i	0.78	nt	nt	89	-17
CCN(CC)c1ccc(/C=N/Nc2nc(C)cc(=O)[nH]2)c(O)c1	-0.5	nt	nt	85*	48*	104	10
Cc1c(NC(=O)c2cc3nc(-c4ccc(Br)cc4)cc(C(F)(F)F)n3n2)c(=O)n(-c2ccccc2)n1C	1.2	i	0.87	-53	234	122	4
CC(C)C(=O)Nc1ccc(C(=O)c2ccccc2)cc1	-2.2	i	0.82	0	108	76	-5
COc1ccc2c(c1OC)CN1CCc3cc4c(cc3[C@@H]1[C@@H]2O)OCO4	-1.9	i	0.87	-86	142	97	2
O=c1cc[nH]c2c(Cl)cccc12	nt	i	0.89	nt	nt	105	nt
CCn1cc(C(=O)O)c(=O)c2cc(F)c(N3CCNCC3)cc21	-0.7	i	0.93	32	102	94	2
CC(=O)c1ccc(N2CCCCCC2)c(F)c1	-1.1	i	0.82	nt	nt	86	-13
CCOC(=O)C(c1ccccc1)C(Nc1ccc(Cl)c(Cl)c1)c1ccccn1 (stereo unspecified)	nt	i	1.1	nt	nt	96	nt
CCOc1ccc(NC(=O)CCn2c(=O)[nH]c3ccsc3c2=O)cc1	-3.3	i	0.86	-17	99	99	-1
CN(C)c1cccc2cccc(N(C)C)c12	nt	i	1.1	nt	nt	98	nt
COc1ccc(NC(=O)Nc2nc3c(s2)CCCC3)cc1	-1.5	i	0.88	48	123	98	-6
Nc1cccc2c1C(=O)N(C(=O)c1ccc(Cl)c(S(=O)(=O)N3CCCCCC3)c1)C2=O	-1.1	i	1	-13	89	100	0
CN(C)/C=C/C(=O)c1ccc(S(=O)c2ccccc2)cc1 (stereo unspecified)	nt	i	0.91	18	72	107	6
